D2 ag = activates the human D2 dopamine receptor | P14416 | activation, % (test concentration not listed) | AID 624465 | actives 0.084% (n = 360,000) | DiscoveRx PathHunter D2 beta-arrestin, luminescence, 90 min; 100% = 57 uM dopamine signal; in the data active = activation above about 40%; inconclusive = about 15% to 40%; inactive = below about 15%; note: compound concentration not given in the record; the text of the record calls up to 30% inactive
Target sequence (P14416 whole entry, looked up): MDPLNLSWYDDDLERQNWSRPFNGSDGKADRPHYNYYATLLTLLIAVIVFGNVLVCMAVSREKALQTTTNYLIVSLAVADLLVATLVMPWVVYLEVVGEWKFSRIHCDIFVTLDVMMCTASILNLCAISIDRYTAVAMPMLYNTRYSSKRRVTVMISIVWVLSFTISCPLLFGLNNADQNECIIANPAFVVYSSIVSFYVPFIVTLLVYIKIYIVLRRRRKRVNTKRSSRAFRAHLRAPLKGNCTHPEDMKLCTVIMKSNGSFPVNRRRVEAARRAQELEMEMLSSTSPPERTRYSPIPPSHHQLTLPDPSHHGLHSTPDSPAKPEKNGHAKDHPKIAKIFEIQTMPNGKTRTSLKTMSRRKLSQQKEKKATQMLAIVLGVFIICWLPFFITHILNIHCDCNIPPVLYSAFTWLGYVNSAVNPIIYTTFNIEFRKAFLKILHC
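DiscoveRx PathHunter D2 beta-arrestin cells (2,100/well) attached overnight, then compound-stimulated 90 min at 37 C in HBSS/10 mM HEPES/0.1% Tween-20 buffer; beta-galactosidase complementation read by luminescence after 1 h at ambient temperature. Dopamine 57 uM final (EC100) as control.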
PINK1 modulator = changes PINK1 expression; PINK1 immunofluorescence, high-content cytometry, 24 h; Potency, µM (top dose mostly 76.6 µM), for the others: at the top dose activation (PINK1 increase), hits mostly activators; actives 0.2% (n = 410,000); AID 624263; active = well fitted activation curve with a large enough effect; inconclusive = small, poorly fitted or top-dose-only effect; inactive = flat fitted curve, though single readings scatter; cell line not stated here;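 note: potency is the fitted concentration of half-maximal effect; % of control where 0% means no effect; nearly all actives have a fitted effect of over 65% in size; a mitochondrial uncoupler was the plate control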
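Decision-based qHTS: stable cells, 24 h exposure to five compound concentrations, CCCP as control. Fixed cells stained for PINK1 plus nuclear, mitochondrial and cell markers, cytometer read.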
TRPML1 agonist = activates the human TRPML1 channel | actives 0.12% (n = 410,000) | TRPML1-expressing cells, Ca2+ dye fluorescence, FDSS; host cell line not named in the record; reference of the full effect not given here | activation, % (no concentration beside the values) | Q9GZU1; in the data active = activation above about 50%; inconclusive = about 30% to 50%; inactive = below about 30%; note: 0% is about no effect; the text of the record puts the active cut at 80%
Target sequence (Q9GZU1 whole entry, looked up): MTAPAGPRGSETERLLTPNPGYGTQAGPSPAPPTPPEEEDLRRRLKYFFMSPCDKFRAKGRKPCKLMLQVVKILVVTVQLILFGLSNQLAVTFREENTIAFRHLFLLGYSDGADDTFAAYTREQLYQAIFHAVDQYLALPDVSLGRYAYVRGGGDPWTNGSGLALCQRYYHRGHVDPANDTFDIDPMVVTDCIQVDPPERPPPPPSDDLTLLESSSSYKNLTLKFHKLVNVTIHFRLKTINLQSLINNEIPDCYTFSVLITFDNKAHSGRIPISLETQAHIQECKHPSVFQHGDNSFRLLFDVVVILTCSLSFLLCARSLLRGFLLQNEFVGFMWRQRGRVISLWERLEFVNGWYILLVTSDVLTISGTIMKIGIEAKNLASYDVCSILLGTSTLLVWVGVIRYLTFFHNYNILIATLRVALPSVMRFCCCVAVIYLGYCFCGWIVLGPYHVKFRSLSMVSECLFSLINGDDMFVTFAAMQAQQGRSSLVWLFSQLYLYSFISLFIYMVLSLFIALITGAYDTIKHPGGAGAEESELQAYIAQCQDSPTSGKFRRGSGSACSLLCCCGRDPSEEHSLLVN
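In this qHTS format, compounds were pin-transferred onto Ca8-dye-loaded TRPML1-DL cells induced with Tet overnight, and intracellular Ca2+ fluorescence was recorded kinetically for 110 s after a 10 s baseline. A subsequent 4uM final 54-4 (EC80) addition followed by a second 110 s read served as the antagonist phase.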
Six1-Eya2 inh = blocks human Six1 binding to Eya2. activity change, % (concentration not given with the values). AID 651725. AlphaScreen GST-Six1/His-Eya2 binding, biochemical; stronger effect = lower value; control for the full effect not named in the record. actives 0.56% (n = 360,000); in the data active = activity change below about -65%; inconclusive = about -30% to -65%; inactive = above about -30%; note: % is set by controls: 0 for no effect and ±100 for the full control effect
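GST-Six1 + His-Eya2 (5X stock: 250/500 nM); Tris pH 8.0, 300 mM NaCl, 0.05% BSA, 0.02% Tween 20; GSH donor/Ni acceptor beads; 1 h 37 °C dark; AlphaScreen readout.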
D2 PAM = potentiates the human D2 dopamine receptor allosterically; AID 624464; P14416; potentiation, % (no concentration beside the values); DiscoveRx D2 beta-arrestin cells, luminescence, 90 min; 100% = 57 uM dopamine signal; actives 0.23% (n = 360,000); active = potentiation of 50% or more; inconclusive = 30% to 50%; inactive = 30% or less;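 note: compound concentration not given in the record; tested on top of an EC20 dose of dopamine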
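D2 cells co-treated with compound plus 50 nM dopamine (EC20) for 90 min at 37 deg C to detect potentiation. Beta-arrestin recruitment was read as enzyme-fragment luminescence after 1 h at ambient temperature. Full response was set by 57 uM dopamine.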
TRPML1 blocker = inhibitors of human TRPML1 channel. TRPML1-inducible cells, Ca2+ dye fluorescence, FDSS; stronger effect = lower value; inhibition of EC80 agonist-evoked calcium signal. activity change, negative = inhibition, % (concentration not given with the values). actives 0.02% (n = 390,000); in the data active means activity change below about -50%; inconclusive means about -30% to -50%; inactive means above about -30%;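 note: stimulus is agonist 54-4 at its EC80 concentration; % is set by controls: 0 for no effect and ±100 for the full control effect; compound concentration not given in the record; the text of the record puts the active cut at -80%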
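Tet-induced TRPML1-DL cells loaded with Ca8 no-wash calcium dye were read kinetically on FDSS. Compound addition was followed by EC80 agonist 54-4 (4 uM final); inhibition was read over 110 s.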
An asterisk follows results filed as active; ? = inconclusive; / = not tested or not shown; [ ] = another dose, or the depositor's remark.

SMILES	D2 ag	PINK1 modulator	TRPML1 agonist	Six1-Eya2 inh	D2 PAM	TRPML1 blocker
CC(C)(C)NC(=O)C1c2ccccc2OCC(=O)N1C1CC1 (stereo unspecified)	/	0.5%	-0.7	20.5	/	/
CCN(CC)S(=O)(=O)c1ccc(N2CC(C(=O)NCc3ccco3)CC2=O)cc1 (stereo unspecified)	-0.3	1.8%	-1.1	-7.6	-12.0	9.1
CC(C)CCCN1C(Nc2ccccc2)=NC[C@@H]1Cc1ccccc1	-2.1	0.6%	-0.1	-1.5	-20.7	15.4
COc1ccc(-c2[nH]nc3c2C(c2ccsc2)C(C#N)=C(N)O3)cc1 (stereo unspecified)	1.3	8.1%[38.3 µM]	0.3	-1.6	-6.2	-1.3
O=C(CN1CCN(Cc2ccc3c(c2)OCO3)CC1)c1c[nH]c2ccccc12	1.4	0.9%	0.7	-11.2	-25.3	-13.0
CC(C)CCN(C)C1CCN(S(=O)(=O)c2ccc(F)cc2)CC1	-5.3	-0.1%	-0.4	-6.4	-6.0	4.5
COc1ccc(CCNS(=O)(=O)c2cccc(C(=O)O)c2)cc1OC	-0.8	-1.1%	-1.1	4.3	1.9	-5.9
Cc1nn(C)cc1-c1cc(C(=O)O)c2ccccc2n1	0.3	1.0%	0.3	4.4	-3.5	17.7
Cc1nc2sc3c(c2c(=O)o1)CC(C)(C)OC3	-4.8	0.7%	-0.1	-22.0	0.1	5.7
Cc1cc(Cl)ccc1OCC(=O)NCCC(=O)O	4.3	0.6%[38.3 µM]	-0.1	-0.6	-14.7	-3.2
COc1ccc(S(=O)(=O)N2CCOCC2)cc1NC(=O)COc1ncnc2ccccc12	-0.1	1.0%	0.6	3.7	-3.8	-8.0
O=C(c1cccs1)N1C[C@H](n2cc(-c3ccc(F)cc3)nn2)[C@@H](O)C[C@@H]1c1ccc(Cl)cc1	1.1	0.8%	1.6	6.2	3.1	-11.9
CSCC(C)N1CCC(CCC(=O)NC2CC2)CC1 (stereo unspecified)	-4.1	-0.9%	2.0	-6.4	-4.1	83.1
N=C1CCCC1C(=S)SCCC(N)=O (stereo unspecified)	-2.8	0.3%	0.0	0.0	-3.8	7.9
O=[N+]([O-])c1ccccc1N=Nc1ccc(O)cc1O	-2.7	6.6%	-0.5	-8.1	-39.0	-5.6
COC(=O)c1ccc(C2N=C(c3cccs3)CC(c3ccccc3O)N2)cc1 (stereo unspecified)	-21.4	2.3%	0.7	-1.1	-3.8	2.0
CC(=O)Nc1ccc(C(=O)N/N=C/c2ccccc2OC(=O)c2ccc(Cl)cc2)cc1	-0.2	-0.3%	0.4	-22.4	-25.9	-6.2
COc1cc(NC(=O)CSCC(=O)N(C)C2CCCCC2)cc(OC)c1	-0.6	-0.7%	-0.5	-1.5	-2.4	-9.8
CCn1c(CNC(=O)c2ccco2)nnc1SCC(=O)Nc1ccc(Br)cc1F	-0.1	-5.5%[38.3 µM]	-0.8	0.0	-5.1	6.5
CCCNC(=O)NC(=O)CSc1ncc(C(F)(F)F)cc1Cl	-0.5	0.6%[38.3 µM]	1.7	-7.6	0.4	26.2
CCN(CC)S(=O)(=O)c1cc(C(=O)Oc2cccc(-c3cnc4ccccc4n3)c2)ccc1OC	0.1	-1.1%	1.2	1.9	-13.1	15.0
Cn1c(=O)n(CCCc2ccccc2)c(=O)c2c1nc1n2CCN1c1ccc(F)cc1	/	0.4%	-0.1	/	/	-8.5
CSc1ncc(CO)n1Cc1ccccc1	-4.3	1.6%	-1.3	-0.7	-1.8	4.0
COc1ccc(OC)c(S(=O)(=O)N(C(C)=O)c2ccc3oc(=O)sc3c2)c1	1.9	-1.7%	-0.2	-2.5	-2.1	-5.0
CCOc1ccc(-n2c(C)cc(/C=N\NC(=O)CC(=O)NC3CCCCC3)c2C)cc1	-1.3	9.8%	1.4	-15.3	4.5	9.1
Going on with the list.
SMILES	D2 ag	PINK1 modulator	TRPML1 agonist	Six1-Eya2 inh	D2 PAM	TRPML1 blocker
COc1ccc(C(C)=O)c(Oc2ccc(S(=O)(=O)N3CCOCC3)cn2)c1	0.5	0.2%	0.4	5.8	-9.8	-9.4
CC(C)(C)OC(=O)NCC1CCN(S(=O)(=O)Cc2ccccc2)CC1	-5.4	3.9%	/	1.4	-0.1	/
COc1cc(C)ccc1S(=O)(=O)N1CCN(C23CC4CC(CC(C4)C2)C3)CC1	-4.6	3.6%	0.8	-0.1	-16.2	14.2
CCCCOC(=O)NC1CCc2cc(OC)c(OC)c(OC)c2-c2ccc(SC)c(=O)cc21 (stereo unspecified)	-0.5	1.9%	1.8	-14.4	-12.2	25.9
COC(=O)c1[nH]c2ccccc2c1NC(=O)CNC1CCCCC1	-2.6	-4.4%	-0.6	-3.3	6.5	-7.2
CC1CCC2(CC1)NC(=O)N(CC(=O)N1c3ccccc3CC1C)C2=O (stereo unspecified)	1.3	8.7%	-0.3	5.1	12.5	-15.0
COc1ccc(NC(=O)CSc2nc3ccccc3c(=O)n2CCNC(C)=O)cc1	-3.5	0.2%[38.3 µM]	-0.7	-1.9	-10.6	-0.2
Cc1ccc(N)cc1NC(=O)CN1CCOCC1	8.6	0.2%	0.1	3.7	-1.2	-7.5
Cc1cc2c(n1-c1ccc(C(=O)NCC(C)c3ccccc3)cc1)CCCC2 (stereo unspecified)	/	1.4%	0.6	/	/	39.8
Cc1ccc(C(=O)O/N=C/c2ccc3c(c2)OCO3)cc1	-1.1	3.8%	-0.2	4.0	-5.9	6.0
COCC(=O)N1CCC(Oc2ccc(C(=O)NCCCn3cccn3)cc2)CC1	-7.9	-0.6%	0.6	24.8	-8.3	6.0
O=C(COC(=O)c1cc(S(=O)(=O)N2CCOCC2)c(Cl)cc1Cl)NC1CC1	3.4	3.9%	1.6	3.7	-9.2	-16.3
CC1CCCN(C2=C(NS(=O)(=O)c3ccc(Cl)cc3)C(=O)c3ccccc3C2=O)C1 (stereo unspecified)	?	0.6%	2.0	-25.8	23.4	-14.4
CC(=O)OCC(=O)C1(O)CCC2C3CCC4=CC(=O)C=CC4(C)C3C(=O)CC21C (stereo unspecified)	-1.5	4.2%	1.2	2.2	-1.7	25.9
COc1ccc(C(=O)NCC2CCCN2S(=O)(=O)c2cccs2)cc1OC (stereo unspecified)	-1.4	0.4%	0.3	-0.2	3.7	21.6
Cc1ccc(-c2nc3ccc(Br)cn3c2Cc2ccccc2C(F)(F)F)cc1	-3.5	1.8%	0.7	-0.3	-12.1	-0.3
O=C1CSC(c2cccs2)N1c1ccccc1 (stereo unspecified)	0.8	/	-0.3	7.2	2.5	-4.6
CCOc1ccc(N2CC(c3nc4ccccc4n3Cc3cccc(Cl)c3)CC2=O)cc1 (stereo unspecified)	/	1.1%	0.9	/	/	-15.8
CCCCCSc1nc(O)cc(=O)[nH]1	-0.7	0.2%	-0.4	10.4	4.1	32.1
Cc1c(C)n(CCC#N)c2ccccc12	-7.1	0.0%	-1.4	-15.4	0.7	-2.8
CC(C)C[C@H](NC(=O)OC(C)(C)C)C(=O)N1CCC(C(=O)N[C@@H](Cc2ccccc2)C(=O)O)CC1	0.2	/	-0.4	-1.9	-4.9	1.9
CN(Cc1ccccc1)C(=S)NC(=O)c1ccccc1	-0.9	-1.3%	-0.3	-4.7	-2.1	-7.0
O=C(NCc1csc(-c2ccccc2)n1)c1ccco1	0.4	-0.9%	0.0	5.0	-17.2	-5.1
CCCNC(=O)CSCc1nc(-c2ccc(SC)cc2)oc1C	-1.4	-1.7%	-0.7	-5.6	-7.8	2.9
COC(=O)c1ccc(NC(=O)c2ccccc2N(C)S(C)(=O)=O)cc1	-4.2	2.7%	-0.5	-0.1	-16.9	-15.6
Continuation.
SMILES	D2 ag	PINK1 modulator	TRPML1 agonist	Six1-Eya2 inh	D2 PAM	TRPML1 blocker
C[C@@H]1CN([C@@H](C)CO)C(=O)CCCn2nncc2CO[C@H]1CN(C)S(=O)(=O)c1ccccc1F	-6.5	0.8%	0.3	4.4	-3.0	12.1
Cc1ccc(NC(=O)CCC(=O)N/N=C/c2ccc([N+](=O)[O-])o2)cc1C	2.3	0.1%	-0.7	-0.1	-2.6	-7.8
Cc1ccc(S(=O)(=O)N(C)C)cc1NC(=O)COC(=O)/C=C/c1ccc2c(c1)OCO2	3.1	-1.7%	0.6	-2.5	-16.5	-13.5
O=C(/C=C\c1ccc2c(c1)OCO2)NC1CC(=O)N(c2ccc(F)cc2)C1 (stereo unspecified)	/	1.0%	-0.6	/	/	-18.7
Cc1cccc(CN2CCc3c([nH]c4ccccc34)C2)c1	-6.4	15.3%	2.0	-28.0	-10.6	58.0
Cc1cc(C)cc(N(C(=O)CCC(=O)Nc2cc(C)on2)C(C(=O)NC2CCCC2)c2ccco2)c1 (stereo unspecified)	-1.8	0.7%	0.2	-8.8	-6.0	-2.9
NS(=O)(=O)c1cnccc1Nc1cccc(Br)c1	0.6	2.4%	1.6	5.6	-20.9	42.9
CCc1ccc(-n2c(=O)c3c4c(sc3n(CC(=O)N3CCCCC3CC)c2=O)CCC4)cc1 (stereo unspecified)	/	2.7%	0.8	/	/	2.3
O=C(O)c1ccc(Cl)c(NC(=S)NC(=O)c2cccc(COc3ccccc3)c2)c1	2.0	4.3%	1.4	-12.2	-3.7	12.6
COc1ccc(-c2nnc(SCC(=O)Nc3ccc(C(C)C)cc3)nc2-c2ccc(OC)c(OC)c2)cc1OC	/	1.8%	1.9	/	/	33.3
COc1cc(OC)c(-c2nnc(-c3ccc(OC)c(OC)c3OC)o2)cc1OC	0.3	8.5%[38.3 µM]	-0.1	?	-6.9	0.7
Cc1cccc(COC[C@H](Cc2ccccc2)N2CCN(C(=O)c3cccc(Cl)c3)CCC2=O)c1	/	2.9%	-0.4	-7.4	/	/
CCCN(CCC)Cc1cc(=O)oc2cc(C)c(C)cc12	0.2	-0.7%	-0.7	-4.2	-4.8	/
CCCCNC(=O)N1CCc2ccccc2C1	-3.0	3.9%	0.1	1.6	-13.7	-7.0
CC(=O)c1cc2c(cc1NC(=O)CCNC(=O)c1ccccc1Cl)OCO2	-0.9	0.3%	-0.4	2.1	-12.4	-8.3
Cc1ccc(NC(=O)CN2C(=O)NC3(CCCCC3)C2=O)cc1S(=O)(=O)N1CCOCC1	-2.5	-2.9%	-0.1	3.0	-12.0	16.8

A stretch from the list above, for reference:
SMILES	D2 ag	PINK1 modulator	TRPML1 agonist	Six1-Eya2 inh	D2 PAM	TRPML1 blocker
CC(=O)c1cc2c(cc1NC(=O)CCNC(=O)c1ccccc1Cl)OCO2	-0.9	0.3%	-0.4	2.1	-12.4	-8.3
Cc1ccc(NC(=O)CN2C(=O)NC3(CCCCC3)C2=O)cc1S(=O)(=O)N1CCOCC1	-2.5	-2.9%	-0.1	3.0	-12.0	16.8

One compound at a time, as listed above.
Cc1cccc(CN2CCc3c([nH]c4ccccc34)C2)c1 in the list: D2 ag: -6.4; PINK1 modulator: 15.3%; TRPML1 agonist: 2.0; Six1-Eya2 inh: -28.0; D2 PAM: -10.6; TRPML1 blocker: 58.0
C[C@@H]1CN([C@@H](C)CO)C(=O)CCCn2nncc2CO[C@H]1CN(C)S(=O)(=O)c1ccccc1F in the list: D2 ag: -6.5; PINK1 modulator: 0.8%; TRPML1 agonist: 0.3; Six1-Eya2 inh: 4.4; D2 PAM: -3.0; TRPML1 blocker: 12.1

Random draw from the library. Share with any hit: about 1%.
